Source: PubChem (National Center for Advancing Translational Sciences (NCATS))
HPGD inh: HPGD (human) dehydrogenase inhibition; P15428; purified HPGD, NADH fluorescence kinetic, PGE2 substrate; Potency, µM, for the others: top-dose activity change, negative = inhibition, usual class: inhibitors; 150,000 compounds, 4.3% hits; AID 894; active = well fitted inhibition curve with a large enough effect (not every such curve was filed as active); inconclusive = small, poorly fitted or top-dose-only effect, or another doubt; inactive = no such curve, though single readings can be large or run the other way;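 note: top concentration of the series not given in the record; plate controls included wells without enzyme; inactives centre near -10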
Target sequence (P15428 whole entry, looked up): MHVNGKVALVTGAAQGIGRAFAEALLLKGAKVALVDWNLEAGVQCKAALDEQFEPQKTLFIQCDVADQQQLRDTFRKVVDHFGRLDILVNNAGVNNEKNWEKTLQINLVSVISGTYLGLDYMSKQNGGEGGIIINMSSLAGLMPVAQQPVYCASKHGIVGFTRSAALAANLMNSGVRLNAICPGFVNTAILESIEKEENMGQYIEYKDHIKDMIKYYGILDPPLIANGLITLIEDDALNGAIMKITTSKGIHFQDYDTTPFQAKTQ
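NADH formation kinetics: reaction with 30 uM PGE2 and 1 mM NAD+ (final), 20 nM enzyme, Tris-HCl pH 8 with Tween 20, after 15 min compound preincubation at room temperature. Fluorescence change, last versus first of five reads.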
* marks the source's active call; other numbers are inactive results; ? = inconclusive. % is set by controls: 0 for no effect and ±100 for the full control effect; potency is the fitted concentration of half-maximal effect. This is a subset. The share of hits here may be higher or lower than overall.

HPGD inh	SMILES
-11.1%	CC1CC[C@@]2(OC1)OC1CC3C4CC[C@H]5CC(O)CC[C@@]5(C)C4CC[C@]3(C)C1C2C (some centres not stated)
-8.3%	Cn1c(N2CCCCC2)nc2c1c(=O)[nH]c(=O)n2C
-26.3%	C=CCSc1nnc(CSc2nc3sc4c(c3c(=O)[nH]2)CCCC4)n1-c1ccccc1
-7.8%	C[C@@H]1C[C@H](OC(=O)[C@@H](O)c2ccccc2)CC(C)(C)N1C
-26.9%	CCCc1nc2ccccc2c(=O)n1/N=C/c1ccccc1O
-7.3%	CCC(C)(C)n1nnnc1C(c1ccncc1)N1CCN(c2cccc(OC)c2)CC1 (configuration not stated)
-3.7%	COc1ccccc1N(CC(=O)NCC1CCCO1)C(=O)CNS(=O)(=O)c1ccc(C)cc1 (configuration not stated)
-7.3%	CCOc1ccc(C2N(c3ccc(F)cc3)C(=O)C3CCCN32)cc1OC (configuration not stated)
-2.3%	COc1ccc(C(C)(C)C)cc1NC(=O)COC(=O)c1ncc(Cl)c(Cl)c1Cl
-7.1%	CCCCCCC(=O)NN1CCN(C)CC1
-8.3%	COc1ccc(C(=O)Nc2n[nH]c(-c3ccncc3)n2)cc1
-13.4%	Cc1ccc2nc(SCC(=O)NCc3cccs3)c(C#N)cc2c1
-27.4%	O=C(c1ccc(N2CCCCCC2)c([N+](=O)[O-])c1)N1CCc2ccccc21
14.1µM*	COc1ccccc1Oc1nc2c(c(=O)n(Cc3ccccc3F)c(=O)n2C)n1C
-3.7%	COc1cccc(/C(C)=N/NC(=O)c2ccc(N(C)C)cc2)c1
-27.4%	O=[N+]([O-])c1ccccc1-c1nc(-c2ccc(Br)o2)no1
-3.4%	O=C(c1ccccc1)N(Cc1ccc2c(c1)OCO2)Cc1nc2ccccc2c(=O)[nH]1
-5.8%	CC(CCc1ccccc1)NC(=O)c1ccc(NC(=O)c2ccc(Cl)cc2Cl)cc1 (configuration not stated)
10µM*	CC(C)(C)c1csc(NC(=O)c2ccc3nccnc3c2)n1
0.4%	Nc1cc(=O)[nH]c(=S)n1-c1cccc(C(F)(F)F)c1
0.9%	COc1ccc(N(C(=O)Cc2cccs2)C(C(=O)NC2CCCCC2)c2cccn2C)cc1 (configuration not stated)
-4.2%	O=C1c2ccccc2C(=O)N1n1c(=O)[nH]c2ccccc2c1=O
-2.7%	O=C(CN1CCN(S(=O)(=O)c2ccc(Cl)cc2)CC1)Nc1ccc(F)cc1F
15.8µM*	CC(C)c1nc2sc3c(=O)[nH]c(=S)[nH]c3c2c2c1CCC2
0.6%	Cn1c(SCc2ccccc2F)nc2cccnc21
-10.7%	C=CCn1c(C)cc(C(=O)COc2ccc(S(=O)(=O)N3CCCC3)cc2[N+](=O)[O-])c1C
-4.8%	COc1cc(/C=N/Nc2ccc([N+](=O)[O-])cc2S(=O)(=O)N2CCOCC2)cc(OC)c1OC
-8.3%	COCc1[nH]nc2c1C(c1ccnc3ccccc13)C(C#N)=C(N)O2 (configuration not stated)
1.58µM*	O=C1ON=C(c2ccccc2)/C1=C/c1ccc(-c2ccccc2[N+](=O)[O-])o1
-12.6%	COc1cccc(NC(=O)C2CC(=O)N(C)C(=Nc3cccc(F)c3)S2)c1 (configuration not stated)
?	CCN(CC)C(=O)c1sc2nc(N3CCOCC3)c3c(c2c1N)CCCC3
-1.4%	CCOC(=O)c1sc(NN=C(C(=O)OC)C(=O)OC)c(C(=O)OCC)c1C

Reformatted: results already given.
Molecule,HPGD inh
CCOC(=O)c1sc(NN=C(C(=O)OC)C(=O)OC)c(C(=O)OCC)c1C,-1.4%
Cn1c(SCc2ccccc2F)nc2cccnc21,0.6%
O=C1ON=C(c2ccccc2)/C1=C/c1ccc(-c2ccccc2[N+](=O)[O-])o1,1.58µM*
COCc1[nH]nc2c1C(c1ccnc3ccccc13)C(C#N)=C(N)O2 (configuration not stated),-8.3%
COc1cccc(NC(=O)C2CC(=O)N(C)C(=Nc3cccc(F)c3)S2)c1 (configuration not stated),-12.6%

New compounds follow:
HPGD inh	SMILES
-10.6%	Cc1nn(-c2ccccc2)c(C)c1/C=N/NC(=O)CSc1nc2ccccc2c(=O)n1-c1ccccc1
-2.5%	CCOC(=O)c1ccc(NCn2c(=O)oc3ccccc32)cc1
-21.7%	O=C(Nc1ccc(Cl)cc1Cl)c1ccc(-c2ccccc2)cc1
?	COC(=O)c1cn(NC(=O)/C=C/c2ccc(OC)c(OC)c2)c(=O)c2ccccc12
-5.6%	Cc1onc(-c2ccccc2Cl)c1C(=O)NCCn1ccc2ccccc21
-15.8%	C=CCOc1cccc(C2C(C(=O)c3ccco3)=C(O)C(=O)N2CCN2CCOCC2)c1 (configuration not stated)
?	CC1(C)Cc2c(C#N)c(N3CCN(C(=O)c4ccccc4Cl)CC3)nc(-c3ccco3)c2CS1
-4.2%	C#CCOCCOCCOCCNc1nc(N2CCN(C(=O)[C@H](C)n3cc(CCCN=C(N)N)nn3)CC2)nc(N2CCN(C(=O)[C@H](C)n3cc(CCCN=C(N)N)nn3)CC2)n1
-1.5%	O=C(c1ccco1)N1CCN(c2cc(=O)n(C3CCCCC3)c(=O)[nH]2)CC1
?	N#Cc1ccccc1CSc1ccc(-c2nc3ccccc3[nH]2)cn1
-6.7%	CSC(=S)N/N=C/c1c[nH]c2ccccc12
-11.4%	O=C(c1cccc(S(=O)(=O)N2CCCCC2)c1)N1CCCCC1
-15.7%	O=C1C2=C(SCCS2)C(=O)N1c1ccccc1
-4.8%	COc1ccccc1Oc1cc(-n2nc(C)cc2C)ncn1
-19.4%	COc1cccc(C2CC(=O)NC3=C2C(=O)CCC3)c1 (configuration not stated)
-5.7%	Cc1ccc2nc3c(c(Nc4ccc5c(c4)OCCO5)c2c1)CCC3

Ordered by value in HPGD inh (largest number first): some entries from above.
HPGD inh	SMILES
-1.5%	O=C(c1ccco1)N1CCN(c2cc(=O)n(C3CCCCC3)c(=O)[nH]2)CC1
-4.8%	COc1ccccc1Oc1cc(-n2nc(C)cc2C)ncn1
-6.7%	CSC(=S)N/N=C/c1c[nH]c2ccccc12

Further results follow.
HPGD inh	SMILES
-25.3%	N#CC1=C(N)C2=CCCC[C@H]2[C@H](c2ccc(Br)cc2)C1(C#N)C#N
-9.1%	COc1ccc(S(=O)(=O)NCC(c2cccnc2)N2CCN(c3ccccc3OC)CC2)cc1C (configuration not stated)
-11.4%	COc1cccc(/C=N/NC(=O)c2ccc([N+](=O)[O-])cc2Cl)c1O
1.26µM*	COc1ccc(Nc2c3c(c(C#N)c4nc5ccccc5n24)CCC3)cc1
-5.3%	Cc1cc(CN2C(=O)c3ccccc3C2=O)on1
-3.7%	COc1cc(NC(=O)C2CC(=O)NC3=C2C(=O)CCC3)cc(OC)c1 (configuration not stated)
-7.3%	CCn1nc(C(=O)OCC(=O)N2c3ccccc3CC2C)c2ccccc2c1=O (configuration not stated)
-7.0%	Cc1onc(-c2c(F)cccc2Cl)c1C(=O)NCc1ccccn1
-1.0%	CCCCNC(=O)OCC(CC)NC(=O)OCC(C)C (configuration not stated)
-15.6%	CCC/C(O)=C1\C(=O)CC(C)(C)CC1=Nc1ccc(OC)cc1OC
-29.1%	CCC1=Nc2cc(C(=O)NCCCOC)ccc2Sc2ccccc21
-7.6%	C=CCn1c(CCNC(=O)c2cccs2)nnc1SCC(=O)c1cccc([N+](=O)[O-])c1
-4.3%	O=C(Nc1c2c(nn1-c1ccc(Cl)cc1)CS(=O)(=O)C2)c1ccc2c(c1)OCO2
0.3%	CC(=O)NCCC(=O)Nc1ccc(F)cc1C
-5.5%	O=C(Nc1ccccn1)NC1CCS(=O)(=O)C1 (configuration not stated)
-0.2%	N#Cc1ccc(Cl)cc1NC(=O)COC(=O)c1ccc(S(=O)(=O)N2CCCC2)cc1
-23.1%	COC(=O)NNC(=O)COc1ccc(Br)c(C)c1
-13.2%	Cc1ccc(CNC(=O)c2nnn(-c3cccc(C)c3)c2N)cc1
-12.8%	CN(C)S(=O)(=O)c1ccc(C(=O)OCC(=O)NC(=O)NCc2ccccc2)cc1
-3.1%	O=C(CSc1c(Cl)cccc1Cl)N1CCC(c2nc3ccccc3s2)CC1
28.2µM*	Cc1csc(SCC(=O)NCCc2ccc(Cl)cc2Cl)n1
-14.5%	Cc1c(C(=O)N/N=C/c2ccc(O)cc2)sc(=S)n1C
?	CCOC(=O)c1c(N)nn(C(=O)C(C)(C)C)c1-c1ccccc1
2.5%	CCOc1ccc(NC(=O)CSc2nnc(-c3ccoc3C)n2CC2CCCO2)cc1 (configuration not stated)
-17.2%	O=C(CSCc1ccccc1Cl)NN1C(=O)c2ccccc2C1=O
2.82µM*	Fc1ccc(-c2n[nH]c(=S)n2/N=C/c2c[nH]c3ccccc23)cc1
?	COc1ccc(/C=N/Nc2cc(C)nc(-n3nc(C)cc3C)n2)c(OC)c1
-27.9%	O=C(Nc1nnc(SCc2ccccc2Cl)s1)c1cccc([N+](=O)[O-])c1
-6.4%	CN1CC(c2ccc(Cl)c(Cl)c2)[C@@]2(COc3ccccc3C2=O)[C@@]12C(=O)Nc1ccccc12 (some centres not stated)
-21.7%	CCN(c1ccc(NS(=O)(=O)c2cc(Cl)ccc2Cl)cc1)C(C)C
25.1µM*	S=c1[nH]nc(-c2ccc(Br)cc2)n1Cc1ccco1
?	CCOc1ccccc1Oc1ccc(C(F)(F)F)cn1
-10.3%	COCCNC(=O)CN(c1ccc(OC)c(OC)c1)S(=O)(=O)c1ccc(C)cc1
?	COc1ccc(OC)c(NC(=O)c2cc(S(=O)(=O)NCc3ccco3)ccc2F)c1
-3.9%	CC1CCCC(C)N1/N=C/c1ccc(Cl)cc1 (configuration not stated)
-8.6%	O=C(O)CCc1n[nH]c(=S)[nH]c1=O
-6.0%	Cc1ccc(Nc2nc(N)nc(CN3CCc4ccccc4C3)n2)cc1
-7.7%	CCn1nc(C(=O)N2CCN(Cc3ccc4c(c3)OCO4)CC2)c2ccccc2c1=O
-6.8%	CCCNC(=S)Nc1ccc(Nc2ccccc2)cc1
-22.0%	Cn1c(=O)[nH]c(=O)c2c1nc(SCC(O)CO)n2Cc1ccccc1Cl (configuration not stated)
-12.9%	CCNS(=O)(=O)c1cccc(C(=O)c2c(C)cc3ccccn23)c1
0.9%	CC1CCC(C(C)(C)O)CC2=C1CCC2C (configuration not stated)
-9.6%	CCOC(=O)N1CCN(S(=O)(=O)c2ccc(F)c(C(=O)Nc3cccc(C)c3C)c2)CC1
-14.8%	COc1ccc(OC)c(NC(=O)C(CCS(C)(=O)=O)NC(C)=O)c1 (configuration not stated)
-10.9%	O=C(CSc1nnc(-c2ccccc2)o1)N1CCOCC1
-4.4%	OCCN1CCN(CC(O)COCc2ccc3c(c2)OCO3)CC1 (configuration not stated)
-15.4%	COc1ccccc1NC(=S)NNC(=O)c1cc(C)n(C)n1
14.1µM*	CC1(C)Cc2c(c(-c3ccco3)[nH]c(=O)c2C#N)CS1
-9.2%	C=CCOc1ccc(CNn2nnnc2N)cc1
-9.0%	O=C(c1cc2ccccc2oc1=O)N(Cc1cccs1)Cc1ccccc1Cl
-7.7%	CC1=CC(C)(C)NC(=S)N1c1ccccc1
2.7%	COc1ccc(OC)c(S(=O)(=O)N(C)CC(=O)Nc2ccccc2OC)c1
?	CC[C@H](C)[C@@H](NC(=O)O[C@H]1C(=O)c2cc(OC)ccc2O[C@@H]1c1ccc(OC)c(Br)c1)C(=O)OC
-11.6%	C/C(=N/OCO/N=C(\C)c1ccc(F)cc1F)c1ccc(F)cc1F
-2.3%	FC(F)(F)c1nc(N2CCCC2)ncc1-c1nnnn1-c1ccccc1
-15.1%	CCCn1c(C)cc(C(=O)COc2ncnc3sccc23)c1C

Additional entries.
HPGD inh	SMILES
?	CC1CN(S(=O)(=O)c2ccc(C(=O)Nc3sccc3C(N)=O)cc2)CC(C)O1 (configuration not stated)
-1.4%	O=C(Oc1cccc2cccnc12)c1ccc(Br)o1
-6.2%	CC(C)C1C(C#N)=C(N)Oc2n[nH]c(C(C)(C)C)c21 (configuration not stated)
2.1%	CCOC(=O)N1CCC(N2CCN(S(=O)(=O)c3ccc(NC(C)=O)cc3)CC2)CC1
-16.8%	COC(=O)c1c(N(S(C)(=O)=O)S(C)(=O)=O)sc2c1CCN(c1ncc(C(F)(F)F)cc1Cl)C2
-9.7%	CC(C)CC(N=C1NC(C)(C)Cc2ccccc21)C(=O)O (configuration not stated)
?	COc1ccc2c(c1)c(CC(=O)Nc1cc(C)ccc1C)c(C)n2C(=O)c1ccc(Cl)cc1
-13.2%	CCOC(=O)c1nnn(-c2nonc2N)c1CNC(C)C
-12.0%	Cc1cccc(N2C(S)=C(C#N)C(=O)NC2c2cccs2)c1 (configuration not stated)
?	O=C(NCc1cccs1)C1CC(c2ccccc2O)=NO1 (configuration not stated)
-4.1%	COC(=O)CCC(=O)OC1(C)C(=O)C=C2C=C(c3ccsc3)OC=C2C1=O (configuration not stated)
-25.0%	CCCCN(CCCC)C(=O)CSc1nnc(-c2cc(OC)c(OC)c(OC)c2)o1
?	N#Cc1c(N)nc(SCC(=O)NCCc2ccccc2)c(C#N)c1-c1cccs1
-8.3%	CSc1nc(C)cc(SCC(=O)Nc2ccccc2)n1
-7.8%	C[n+]1cn(CC(O)COCc2ccccc2)c2ccccc21 (configuration not stated)
-14.3%	COCCN=c1scc(-c2cc(OC)c(OC)c(OC)c2)n1/N=C/c1c(C)[nH]c2ccccc12
-6.4%	CCOc1ccc(Cn2nnc(C(=O)NCCc3ccc(Cl)cc3)c2N)cc1
-15.1%	COc1ccc2c(c1)O[C@@H](c1cccc(C(F)(F)F)c1)[C@H](OC(=O)NS(=O)(=O)c1ccc(F)cc1)C2=O
-1.2%	COc1cccc(Cn2c(NCC(C)C)nc3c2c(=O)n(C)c(=O)n3C)c1
-4.2%	CCOC(=O)C1C(=O)C=C(/C=C/c2ccc(N(C)C)cc2)CC1c1ccccc1 (configuration not stated)
